VDR inh: vitamin D3 receptor (human) inhibition; P11473; VDR-SRC2-3 peptide fluorescence polarization, 2 h; Potency, µM, for inactives: max response, negative = inhibition, actives largely listed as inhibitors; hit rate 0.93% among 400,000; active means well fitted inhibition curve with a large enough effect; inconclusive means small, poorly fitted or top-dose-only effect, or another doubt; inactive means no such curve, though single readings can be large or run the other way; further: series mostly up to about 120 µM
Target sequence (P11473 whole entry, looked up): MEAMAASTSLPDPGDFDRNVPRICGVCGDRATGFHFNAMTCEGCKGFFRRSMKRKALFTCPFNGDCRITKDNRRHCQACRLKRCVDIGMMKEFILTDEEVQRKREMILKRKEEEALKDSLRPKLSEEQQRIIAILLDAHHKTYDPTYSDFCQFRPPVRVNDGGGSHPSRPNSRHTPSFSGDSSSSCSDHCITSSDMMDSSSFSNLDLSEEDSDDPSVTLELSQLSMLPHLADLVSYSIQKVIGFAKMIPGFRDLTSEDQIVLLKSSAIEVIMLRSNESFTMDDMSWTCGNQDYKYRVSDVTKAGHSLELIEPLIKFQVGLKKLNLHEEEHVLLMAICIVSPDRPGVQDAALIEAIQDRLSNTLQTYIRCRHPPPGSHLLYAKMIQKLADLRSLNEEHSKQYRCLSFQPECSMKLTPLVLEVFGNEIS
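Two reagent solutions held at 4 deg C in the dark were dispensed, compounds pinned at 23 nl, and the mixture incubated 2 h at room temperature. Read-out: fluorescence polarization of VDR–SRC2-3 peptide binding.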
The depositor's hits bear a star; ? = inconclusive; & = joins results of further samples; [ ] = remark or other dose. On the % scale 0 is the no-effect control and ±100 the full control effect; potency means the concentration at half of the fitted maximal effect. Only part of the results is shown (hit frequency here may not be typical).

VDR inh	SMILES
7%&25%&10%	c1ccc(C(NCCNC(c2ccccc2)c2ccccc2)c2ccccc2)cc1
5%	Cc1cccc(OC(=O)c2nc(SCc3ccccc3F)ncc2Cl)c1
-9%	COc1ccc(OC)c(NC(=O)C2CCCN(S(=O)(=O)c3c(C)noc3C)C2)c1 (centres undefined)
-7%	CCOc1ccc(/C=N/NC(=S)Nc2c(C)cccc2C)cc1
-12%	O=C(CSc1nnnn1-c1ccc(O)cc1)Nc1cccc(S(=O)(=O)N2CCCC2)c1
?	CC(C)C1COC(c2cccn2Cc2ccccc2Cl)=N1 (centres undefined)
-8%	COCCNC(=O)C(=O)Nc1cc2c3c(c1)CCC(=O)N3CCC2
?	CC(=O)c1ccc(N2CCN(S(=O)(=O)c3ccc4c(c3)NC(=O)CC(=O)N4)CC2)cc1
-12%	CSc1cccc(CNC(=O)C2CCC(=O)N(Cc3cccc(C(F)(F)F)c3)C2)c1 (centres undefined)
4%	COc1ccc(-c2nc(-c3ccccc3)c(-c3cccs3)[nH]2)cc1OC
-7%	CCCCCn1c(=NC(C)=O)c(C#N)cc2c(=O)n3ccccc3nc21
-6%	CCCCCCCc1nn2c(=O)cc(O)nc2s1
-6%	O=C(C1CCN(S(=O)(=O)c2cccc3nsnc23)CC1)N1CCc2ccccc2C1
8%	O=C(c1ccc(-n2nc(C(F)(F)F)c3c2CCCC3)cc1)N1CCOCC1
-18%	NCCC[C@@H](CC(=O)N[C@@H]1CCCC[C@H]1C(=O)N[C@H](CC(=O)N[C@@H](CCC(=O)O)CC(=O)O)Cc1c[nH]c2ccccc12)NC(=O)C[C@H](Cc1ccccc1)NC(=O)[C@@H]1CNCC[C@H]1N
7%	CCCc1nn2c(=O)cc(COC(=O)c3ccco3)nc2s1
6%	COc1cccc(N2CC(C)Cn3c2nc2c3c(=O)n(CCN3CCOCC3)c(=O)n2C)c1 (centres undefined)
75%[activator]	COc1ccc(NC(=O)Nc2nnc(CC(=O)NCc3ccccc3)s2)cc1
-3%	CCC(=O)OCC(=O)[C@@]1(OC(=O)CC)[C@H](C)C[C@@H]2[C@@H]3[C@H]([C@@H](O)C[C@@]21C)[C@]1(C)C=CC(=O)C=C1C[C@@H]3Cl
-11%	COc1cccc(CNCc2ccc(OC)cc2OC)c1
0%	CCn1c(CN2CCCCC2)nc2cc(NC(=O)c3ccc([N+](=O)[O-])cc3)ccc21
-20%	O=C(Oc1ccc(F)cc1)N1CCOCC1
-3%	CC(C)(C)NC1=CC(=O)OC12CCCCC2
-5%	CCOC(=O)c1ccccc1NC(=O)Cn1c(=O)n(CCCC(=O)NCc2ccc3c(c2)OCO3)c(=O)c2ccccc21
-5%	Fc1ccc2cnc(-c3cccnc3)cc2c1
-35%	C/C(=N/NC(=O)CN1CCN(Cc2ccccc2Cl)CC1)c1cccs1
-16%	NS(=O)(=O)c1ccc(-c2ccc(/C=N/NC(=O)c3ccccc3O)o2)cc1
-21%	CC(=O)Nc1ccccc1OCC(=O)N(Cc1ccccc1)C(C)C
29%	Cc1ccc(C2(C)NC(=O)N(CC(=O)NCc3cccc(Cl)c3)C2=O)cc1 (centres undefined)
0%	CCn1c(C)c(C)c2cc(C(=O)NCCCN3CCCC3)ccc21
7%	CNc1c([N+](=O)[O-])cnn1-c1ccccc1F
-1%	CCN(CC)S(=O)(=O)c1ccc(C)c(NC(=O)COC(=O)CN2C(=O)NC(C)(C)C2=O)c1
4%	CC(=O)Nc1cc2c(cc1[N+](=O)[O-])-c1ccc(F)cc1C2
3%	O=C(CN1CCc2ccccc2C1)NC1CCCC1
-2%	Cc1ccc(NC(=O)Cn2c(=O)c3ccccc3n3nncc23)cc1
7%	O=C(O)c1cccc(Nc2ncnc3c2cnn3-c2ccccc2)c1
-2%	COc1ccc(OC)c(/C=N/NC(=O)c2[nH]ncc2Br)c1
5%	CCc1ccc(S(=O)(=O)NCC2(N3CCOCC3)CCCCC2)cc1
-8%	CCN(CC)CCNC(=O)Cn1c(C)cc2ccccc2c1=O
-11%	Cc1cccnc1NC(=O)c1ccc(S(=O)(=O)N2CCCCCC2)cc1
-13%	COc1cc(/C=N/NC(=O)C(Cc2c[nH]c3ccccc23)NC(=O)OCC(C)C)cc([N+](=O)[O-])c1OCc1ccccc1 (centres undefined)
-10%	CC(=O)NC(Cc1cccc(C)c1)C(=O)NC1CCN(S(=O)(=O)c2ccccc2)CC1 (centres undefined)
0%	CCN1CCN(c2cc(C)c3cc(NC(=S)N(C)Cc4ccccc4)ccc3n2)CC1
5%	COC(=O)CNC(=O)C1CCN(S(=O)(=O)c2cnc[nH]2)CC1
16%	Cc1ccc(CN2CC(C(=O)N(Cc3nnc(-c4ccccc4Cl)o3)C3CC3)CC2=O)cc1 (centres undefined)
-24%	S=C(NN=C(c1ccccc1)c1ccccn1)N(Cc1ccccn1)Cc1ccccn1
-6%	COc1ccc(C2=NOC(c3nnc(-c4ccccc4)o3)C2)cc1 (centres undefined)
1%	O=C(Nc1ccc(Br)cc1)c1cccc(S(=O)(=O)Nc2ccc(Br)cc2)c1
-6%	COc1cc(/C=C(\C#N)C(=O)NCC2CCCO2)cc(OC)c1OC (centres undefined)
1%	COc1ccccc1CNS(=O)(=O)c1ccc(-n2cccn2)cc1

Next section:
VDR inh	SMILES
-5%	COc1ccc(OC)c(CN2CCN(C(=O)c3ccc(F)cc3)CC2)c1
1%	COCCCNC(=O)c1cc(Sc2nnc(C)s2)nc2ccccc12
-5%	COc1ccc(OC)c(Cc2nnc(CCC(=O)N3CCCCC3c3nccs3)o2)c1 (centres undefined)
?	CCCCC1=CC2=C(c3ccco3)C(=O)C(C)(OC(=O)c3ccc(OC)cc3)C(=O)C2=CN1C1CCCCC1 (centres undefined)
11%	CC(=O)Nc1ccc(S(=O)(=O)NC2Cc3ccccc3C2)cc1
-3%	CC(=O)Nc1ccc(S(=O)(=O)NCC(C)NS(=O)(=O)c2ccc(NC(C)=O)cc2)cc1 (centres undefined)
1%	CCOc1ccc(/C=C2\CCC(C3CCCC3)C2=O)cc1OC (centres undefined)
-23%	CCOC(=O)N1CCN(C(=O)CSCC(=O)Nc2nc(-c3ccc(C)cc3)cs2)CC1
2%	CS(=O)(=O)N1CCc2cc(C(=O)N3CCCCC3)ccc21
-9%	CCC(=O)N1CCc2cc(Br)cc(S(=O)(=O)N3CCCCC3CC)c21 (centres undefined)
-6%	CCC(=O)Nc1cccc(-c2cn3ccsc3n2)c1
-9%	CC(/C=N/NC(=O)NC1CCCCC1)=C\c1ccccc1
10%	COc1ccc(CCNC(=O)CSc2nnc(-c3ccc(C)cc3)c(-c3ccc(C)cc3)n2)cc1OC
25%	O=C(N/N=C/c1cn(CC(=O)N2CCOCC2)c2ccccc12)c1cccnc1
16%	COc1cccc(N(CC(=O)NCc2ccco2)C(=O)CCC(=O)Nc2nccs2)c1
-2%	CC(C#N)On1c(SC(C)C#N)nc2ccccc2c1=O (centres undefined)
-12%	CC(C)(C)c1cc(NC(=O)c2cccc(S(=O)(=O)N3CCOCC3)c2)no1
-5%	O=C(Nc1cccc2ncccc12)c1ccco1
7%	CN(C)C(=O)COn1c(SCC(=O)N(C)C)nc2ccccc2c1=O
45µM*	Cc1ccc(C(C[N+](=O)[O-])c2c(C)[nH]n(-c3ccccc3)c2=O)cc1 (centres undefined)
-3%	COc1ccc(CNC(=O)c2cnc3ccc(C)cn3c2=O)cc1
20%	CCOc1cc(CNC(=O)c2ccc(NC(=O)c3nsc4ccccc34)cc2)ccc1OC
-1%&0%	Cc1cc(NS(=O)(=O)c2ccc(NC(=O)COc3c(C)cc(Br)cc3C)cc2)no1
11%	CC(=O)N(c1ccc(Cl)cc1)c1nc(C)cc(C)c1C#N
-8%	CCOc1ccccc1NC(=O)CN1CCC(NC(=O)c2ccccc2C)CC1
-8%	Cc1nc2ncnn2c(C)c1CCC(=O)O
-11%	COc1ccc(C2CC(c3cccc(Br)c3)=NN2c2ccc(S(N)(=O)=O)cc2)cc1 (centres undefined)
-12%	CCn1c(SCC(=O)NC2CCCCC2C)nnc1-c1ccc(OC)cc1 (centres undefined)
-15%	Cc1nnc(SCC(=O)c2c(N)n(C)c(=O)n(C)c2=O)[nH]c1=O
-1%	NC(=O)c1ccsc1NC(=O)CN1C(=O)NC2(CCCCC2)C1=O
?	O=C(CSc1nnc2c(Cl)cc(C(F)(F)F)cn12)N(Cc1ccccc1)Cc1ccccc1
8%	CCc1nnc(NC(=O)Cc2c[nH]c3ccccc23)s1
1%	Oc1[nH]c2ccccc2c1N=NC(=S)NCC1CCCO1 (centres undefined)
5%	CN(C)Cc1ccccc1-c1cc(Nc2ccccc2)ncn1
7%	Cc1c(C)c2cc(Cl)c(O)c(CN3CCCCC3)c2oc1=O
10%	O=C1CN(C(=O)COC(=O)C23CC4CC(CC(O)(C4)C2)C3)c2ccccc2N1
-15%	Cc1ccc(S(=O)(=O)N2CCC(C(=O)OCC(=O)N3CCC(C)CC3)CC2)cc1C
-17%	CNC(=O)c1ccc(=O)n(Cc2cccc(C(F)(F)F)c2)c1
20%	O=C(CN(Cc1ccc(Cl)c(Cl)c1)S(=O)(=O)c1ccccc1)N/N=C\c1ccc2c(c1)OCO2
0%	O=C(Cn1c(SCCOc2ccccc2Cl)nc2ccccc21)N1CCCCC1
-22%	N#Cc1c(N2CCCC2)ccc(Br)c1Cl
4%	COc1ccc(/C=C2/S/C(=N/S(=O)(=O)Cc3ccccc3)NC2=O)cc1OC
1%	Cc1nn2c3ccccc3n(Cc3ccccc3)c2nc1=O
20%	COc1ccc(C)cc1S(=O)(=O)NC1CCCCCC1
13%	Cc1ccc(C)c(S(=O)(=O)N2CCCOC2CNC(=O)C(=O)NCc2cccs2)c1 (centres undefined)
1%	O=C(Cn1c(=O)n2nc(-c3cccc(F)c3)nc2c2ccccc21)N1CCN(c2ccccc2F)CC1
0%	Cc1cc(C(=O)N2CCN(S(=O)(=O)c3ccc(F)c(Cl)c3)CC2)c(C)o1
7%	CCc1nnc(NC(=O)c2ccc(F)c(S(=O)(=O)N3CCCCC3)c2)s1
1%	CCc1nnc2c(NCc3cccc(OC)c3)nc3ccccc3n12
9%	CCOc1ccc(/C=N/NC(=O)c2csc(C)c2C)c(OCC)c1

Further entries follow.
VDR inh	SMILES
14%	CC(=O)N1CCN(c2ccc(NC(=O)c3cccc(C)c3)cc2)CC1
-6%	CCOC(=O)CSC1=C(C#N)C(c2ccccc2C)C2=C(CCCC2=O)N1 (centres undefined)
9%	CCc1noc(C)c1C(=O)N(C)CC(=O)Nc1ccc(Br)cc1C
-3%	CC(C)n1nc(C(=O)Oc2cc(Cl)ccc2Cl)c2ccccc2c1=O
-8%	Cc1cccc(C)c1N=Cc1c(O)n(-c2nccs2)c(=O)c2ccccc12
6%	O=C(COC(=O)c1cc(-c2cccs2)nc2ccccc12)c1ccc(F)cc1
-1%	Nc1ncnc2nc(SCCOc3ccc(Cl)cc3)[nH]c12
0%	CN(C)C(=O)CCc1ccc2c3c([nH]c2c1)[C@]1(C)[C@@H](C(=O)N2CCOCC2)C[C@H](CC(=O)NCCc2ccccn2)C(=O)N1CC3
-18%	O=C(N/N=C/c1cccc2cccnc12)c1ccccc1O
-11%	COc1ccc(NC(=O)Cc2c[nH]c3ccccc23)cc1S(=O)(=O)N1CCCCC1
-13%	O=C(Cn1cc(C(F)(F)F)ccc1=O)N/N=C/c1cccc(Cl)c1Cl
-17%	CCCCC(C(=O)NC1CCCC1)N(Cc1ccco1)C(=O)Cn1nnc(-c2ccc(F)cc2)n1 (centres undefined)
3%	Cn1cc(S(=O)(=O)c2ccccc2)c(=O)c2cc(F)c(N3CCCCCC3)cc21
-8%	COc1ccc(Oc2ncc3nc(-c4cccc(C#N)c4)c(=O)n(CCC#N)c3n2)cc1
?	CC(C)CCC[C@@H](C)[C@H]1CC[C@H]2[C@@H]3CC=C4CC(O)CC[C@]4(C)[C@H]3CC[C@]12C (some centres undefined)
3%	CC(C)CCN(CC(=O)NC(C)(C)C)C(=O)C(=O)Nc1ccc2c(c1)OCCO2
24%	Cc1ccc2cccc(S(=O)(=O)N3CCN(c4cccc(Cl)c4)CC3)c2n1
19%	CC1CCN(S(=O)(=O)c2ccc3nc(NCc4ccccc4)ccc3c2)CC1

Structures shown so far that contain an NH in an aromatic ring, in the order listed:
VDR inh	SMILES
4%	COc1ccc(-c2nc(-c3ccccc3)c(-c3cccs3)[nH]2)cc1OC
-18%	NCCC[C@@H](CC(=O)N[C@@H]1CCCC[C@H]1C(=O)N[C@H](CC(=O)N[C@@H](CCC(=O)O)CC(=O)O)Cc1c[nH]c2ccccc12)NC(=O)C[C@H](Cc1ccccc1)NC(=O)[C@@H]1CNCC[C@H]1N
-2%	COc1ccc(OC)c(/C=N/NC(=O)c2[nH]ncc2Br)c1
-13%	COc1cc(/C=N/NC(=O)C(Cc2c[nH]c3ccccc23)NC(=O)OCC(C)C)cc([N+](=O)[O-])c1OCc1ccccc1 (centres undefined)
5%	COC(=O)CNC(=O)C1CCN(S(=O)(=O)c2cnc[nH]2)CC1
45µM*	Cc1ccc(C(C[N+](=O)[O-])c2c(C)[nH]n(-c3ccccc3)c2=O)cc1 (centres undefined)
-15%	Cc1nnc(SCC(=O)c2c(N)n(C)c(=O)n(C)c2=O)[nH]c1=O
8%	CCc1nnc(NC(=O)Cc2c[nH]c3ccccc23)s1
1%	Oc1[nH]c2ccccc2c1N=NC(=S)NCC1CCCO1 (centres undefined)
-1%	Nc1ncnc2nc(SCCOc3ccc(Cl)cc3)[nH]c12
0%	CN(C)C(=O)CCc1ccc2c3c([nH]c2c1)[C@]1(C)[C@@H](C(=O)N2CCOCC2)C[C@H](CC(=O)NCCc2ccccn2)C(=O)N1CC3
-11%	COc1ccc(NC(=O)Cc2c[nH]c3ccccc23)cc1S(=O)(=O)N1CCCCC1

Screening data as filed in PubChem BioAssay.
